ALR inh: human ALR oxidase inhibition via reduced H2O2; P55789; purified ALR, DTT oxidation, H2O2 HRP-luminol luminescence; inhibition, % (concentration not given with the values); 290,000 tested, 3.8% active;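 active means mean and each replicate at 75% or more; inconclusive means only one of the two met; inactive means neither met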;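 further: stock transfer was 7.5 nL into about 7.5 µL; 0% = neutral wells and 100% = wells with inactivated enzyme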
Target sequence (P55789 whole entry, looked up): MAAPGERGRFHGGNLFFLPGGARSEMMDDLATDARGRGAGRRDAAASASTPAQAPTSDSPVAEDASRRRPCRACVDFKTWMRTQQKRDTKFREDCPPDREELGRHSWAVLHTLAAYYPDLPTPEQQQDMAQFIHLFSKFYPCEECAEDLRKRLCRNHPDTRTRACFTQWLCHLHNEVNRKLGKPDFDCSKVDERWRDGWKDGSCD
FGF22 binding: FGF22 (human) thermal shift binding. Q9HCT0. recombinant FGF22 thermal shift, SYPRO orange fluorescence; percent of sucrose octasulfate shift, DMSO zero. calls only at 9.99 µM. 340,000 tested, 1.5% active;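 active means melting point raised past a set limit in the mean and every replicate; inconclusive means no clear call; three in four hits are not shown here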
Target sequence (Q9HCT0 whole entry, looked up): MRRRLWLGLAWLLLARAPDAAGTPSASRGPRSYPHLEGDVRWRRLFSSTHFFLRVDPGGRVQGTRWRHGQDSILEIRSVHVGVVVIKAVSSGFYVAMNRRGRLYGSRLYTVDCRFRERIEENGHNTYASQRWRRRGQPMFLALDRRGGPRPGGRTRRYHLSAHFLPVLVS
HNF4A DNA FP: change in binding of human HNF4 alpha to DNA. AID 1224865. 360,000 tested, 0.3% active. HNF4a-FITC DNA binding, fluorescence polarization, 1 h. activity change, % at 10 µM. P41235; in the data active means activity change above about 30%, passing the limit was not always enough;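 further: controls were the assay level and a saturating level of protein; the project sought stronger binding though the title names inhibitors; some compounds called inactive have numbers as strong as hits; positive values seem to mean higher polarization but the record does not say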
E coli growth: E. coli growth inhibition | Escherichia coli growth, OD600, 23 h; active compounds read low | OD600 absorbance (test concentration not listed) | 330,000 tested, 0.21% active | AID 1053175;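 active means OD600 absorbance below the run mean of sample wells minus 3.6 SD, in any replicate, cut at about 0.56 in these data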;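 further: stock transfer was 300 nL into about 60 µL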
Ecoli rRNA inh: inhibitors of bacterial rRNA selective over humanized ribosomes. 350,000 tested, 1.6% active. E. coli WT GFP vs humanized-ribosome RFP mutants, fluorescence, 24 h; active compounds read low; DMSO median 0, no signal -100. GFP signal change (wild-type ribosome), % (no concentration beside the values). AID 720706;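 active means significant combined selectivity score with lowered wild-type GFP, culture density cut under 30%, mutant RFP and density less affected; inactive means any of these conditions unmet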; further: one replicate is shown; some compounds called inactive have numbers as strong as hits
Beta2AR agonist: human beta-2 adrenergic receptor agonism by FAP; 340,000 tested, 0.43% active; P07550; response, % (no concentration beside the values); Am2.2-beta2AR cells, FAP receptor internalization, flow cytometry; reference of the scale not given here; AID 504454;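 active means response above a set limit, near 3 SD of response in nonfluorescent compounds, cut at about 42% in these data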;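 further: stock transfer was 100 nL into about 11 µL; a reference agonist was the positive control; negative values mostly stem from fluorescent compounds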
Target sequence (P07550 whole entry, looked up): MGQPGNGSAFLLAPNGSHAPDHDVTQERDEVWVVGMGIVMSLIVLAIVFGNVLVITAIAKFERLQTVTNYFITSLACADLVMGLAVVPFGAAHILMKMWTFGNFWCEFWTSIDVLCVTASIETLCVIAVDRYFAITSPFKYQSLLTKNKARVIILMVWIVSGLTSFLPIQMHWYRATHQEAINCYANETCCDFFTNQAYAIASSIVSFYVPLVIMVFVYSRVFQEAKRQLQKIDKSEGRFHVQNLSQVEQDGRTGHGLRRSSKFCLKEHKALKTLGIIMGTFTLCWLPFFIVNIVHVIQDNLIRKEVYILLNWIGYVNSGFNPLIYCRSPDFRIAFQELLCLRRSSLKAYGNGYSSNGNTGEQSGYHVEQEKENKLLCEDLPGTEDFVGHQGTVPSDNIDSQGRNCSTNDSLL
UCH37 inh: inhibitors of human deubiquitinating enzyme UCH37; purified proteasome/UCH37, Ub-AMC cleavage fluorescence; 330,000 tested, 0.33% active; AID 588478; Q9Y5K5; inhibition, % (concentration not given with the values);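 active means mean of two replicates above 20%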;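 further: 0% = compound-free wells with enzyme and 100% = wells lacking proteasome; stock transfer was 100 nL into about 20 µL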
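Material: human UCH37 enzyme supplied as purified proteasome complex / Amount: 0.15 nM proteasome as dispensed / Buffer or medium: pH 7.4 Tris-HCl (50 mM) with ovalbumin, ATP-MgCl2, DTT / Times: preincubation 30 min, reaction 25 min, room temperature / Technique: AMC fluorescence from Ub-AMC cleavage, excitation 355 nm, emission 460 nm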
Ecoli rRNA inh OD600: second read-out of Ecoli rRNA inh, no call of its own (marks repeat the call); OD600 change, %; measured here: OD600 growth;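 optical density of the mix in the first replicate; 0 = DMSO median and -100 = no signal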
Ecoli rRNA inh RFP: also measured in Ecoli rRNA inh; calls as there; RFP signal change, %; measured here: RFP humanized mutant strains;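 first replicate; 0 = DMSO median and -100 = no signal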
Numbers without * were called inactive; i = inactive; ? = inconclusive; nt = not tested or not shown; + = active, no number.

1: O=S(=O)(NCc1ccccc1)c1ccc(Cl)c(S(=O)(=O)NCc2ccccc2)c1
2: CN(c1ccccc1)S(=O)(=O)c1cccc(NC(=O)c2ccc3ncsc3c2)c1
3: CCOc1ccccc1NS(=O)(=O)c1ccc(Br)s1
4: CCN(CC)c1ccc(NC(=O)Nc2ccccc2)cc1
5: CC(=O)c1nn(-c2cccc(C(F)(F)F)c2)c(=O)[nH]c1=O
6: CCn1cnc2cc(NCc3ccc(Br)cc3)ccc21
7: COc1ccc(OC(=O)CCCN2C(=O)c3ccccc3C2=O)cc1
8: COc1ccccc1N1CCN(c2nc(N)c(C#N)c(CC#N)c2C#N)CC1
entry no. | 1 | 2 | 3 | 4 | 5 | 6 | 7 | 8
ALR inh | nt | nt | 12.0 | ? | 0.9 | 86.3* | -9.1 | 14.1
FGF22 binding | nt | + | i | i | i | i | nt | nt
HNF4A DNA FP | 2.5 | -4.4 | 0.0 | 0.2 | -3.6 | nt | 2.0 | 4.3
E coli growth | 0.654 | 0.653 | 0.71 | 0.647 | 0.698 | 0.591 | 0.7 | 0.706
Ecoli rRNA inh | nt | -31.7 | -21.2* | 7.5 | 1.4 | -22.6 | nt | nt
Ecoli rRNA inh OD600 | nt | -37.0 | -9.6* | -1.6 | 1.8 | -26.9 | nt | nt
Ecoli rRNA inh RFP | nt | 4.8 | -4.8* | -3.7 | 0.4 | -2.7 | nt | nt
Beta2AR agonist | 2.3 | 20.6 | -1.9 | -3.9 | -1.3 | nt | 8.0 | 0.4
UCH37 inh | 7.5 | 3.5 | 2.4 | 1.1 | 1.2 | -1.5 | 0.7 | -0.8

9: O=C(/C=N/O)Nc1ccccc1C(=O)O
10: Cc1ccc(OCCOc2ccc(Br)cc2)c([N+](=O)[O-])n1
11: CN(C)CCCN(C(=O)c1ccc(S(=O)(=O)N2CCCCCC2)cc1)c1nc2c(F)cccc2s1
12: O=C(NCCc1ccccn1)C1CCN(S(=O)(=O)c2ccc3ccccc3c2)CC1
13: CCN(CC)S(=O)(=O)c1ccc(-c2cn3ccc(C)cc3n2)cc1
14: CCOc1cc(/C=C2\C(=O)N(c3cccc(C(F)(F)F)c3)C(=O)c3ccccc32)ccc1O
15: Cn1c(=O)cc(OCCCC(=O)N2CCN(c3ccccc3)CC2)c2ccccc21
16: O=C(Nc1ccc(Cl)cc1-c1nc2ccccc2s1)c1ccco1
entry no. | 9 | 10 | 11 | 12 | 13 | 14 | 15 | 16
ALR inh | -14.6 | nt | -28.2 | -4.9 | -1.3 | nt | 34.7 | 7.0
FGF22 binding | nt | i | i | i | i | nt | nt | nt
HNF4A DNA FP | 3.6 | -0.8 | 3.2 | 1.6 | 3.8 | -1.8 | -1.3 | -0.2
E coli growth | nt | 0.638 | 0.656 | 0.727 | 0.717 | 0.723 | 0.621 | 0.71
Ecoli rRNA inh | nt | nt | -8.8 | -14.3 | 15.5 | nt | nt | nt
Ecoli rRNA inh OD600 | nt | nt | -3.4 | -7.4 | 8.6 | nt | nt | nt
Ecoli rRNA inh RFP | nt | nt | 2.5 | 1.3 | 0.1 | nt | nt | nt
Beta2AR agonist | 2.8 | -9.2 | 11.9 | -12.3 | -8.3 | 20.1 | 4.3 | 2.5
UCH37 inh | nt | -0.2 | 1.0 | 1.9 | -110.9 | 1.2 | 0.7 | -13.4

17: O=C(CSc1nnc(CNC(=O)c2c(F)cccc2F)o1)NCc1ccccc1
18: CCOC(=O)c1ccc(Nc2nc(C)cc(C)c2C#N)cc1
19: Cn1c(N2CCC(C(N)=O)CC2)nc2c1c(=O)n(Cc1ccc(Cl)cc1)c(=O)n2C
20: COc1cc(-c2nc(-c3ccc(NC(=O)c4ccc5c(c4)OCO5)cc3)no2)cc(OC)c1OC
21: Fc1ccccc1CNc1nc(-c2cccnc2)nc2ccccc12
22: N#C/C(=C/c1cn(-c2ccccc2)nc1-c1cccc(S(=O)(=O)N2CCCC2)c1)C(=O)NCc1ccco1
23: O=C(c1cnn2c(C(F)(F)F)cc(-c3ccc(Br)cc3)nc12)N1CCOCC1
24: Cc1ccc(S(=O)(=O)NCCC(=O)NC2CCCCC2)cc1
entry no. | 17 | 18 | 19 | 20 | 21 | 22 | 23 | 24
ALR inh | 13.8 | -2.0 | -4.0 | 4.5 | -17.9 | 20.7 | nt | nt
FGF22 binding | i | nt | nt | nt | i | nt | nt | i
HNF4A DNA FP | 8.1 | -1.3 | 0.8 | -1.9 | 14.5 | -3.4 | 0.9 | -5.2
E coli growth | 0.721 | 0.684 | 0.704 | 0.737 | 0.658 | 0.69 | 0.716 | 0.729
Ecoli rRNA inh | 21.5 | nt | -8.7 | nt | -56.6 | nt | nt | 7.8
Ecoli rRNA inh OD600 | 16.0 | nt | -12.9 | nt | -75.6 | nt | nt | 5.0
Ecoli rRNA inh RFP | 3.7 | nt | -2.3 | nt | -15.5 | nt | nt | 0.7
Beta2AR agonist | -2.8 | 2.8 | 3.4 | 16.4 | -5.0 | 6.0 | 2.1 | -1.0
UCH37 inh | 0.9 | -2.4 | 1.1 | -11.4 | 2.0 | -25.4 | -9.5 | 4.4

25: CCCCNc1nc(-c2ccccc2)nc(-n2ccnc2)n1
26: CCO[C@H]1OC(C(=O)N2CCN(Cc3ccccc3)CC2)=C[C@@H](c2cn(C(C)=O)c3ccccc23)[C@@H]1CCCO
27: COc1ccccc1NC(=O)CSc1nnc(-c2ccoc2C)n1CC1CCCO1 (configuration not stated)
28: CC(=O)Nc1ccccc1Nc1nc(NCCO)nc(N2CCCC2)n1
29: COC(=O)N/N=C\C=C\c1ccc2c(c1)OCO2
30: CCOCCc1nn2c(=O)cc(CSCC(=O)Nc3cc(C)cc(C)c3)nc2s1
31: Nc1ccn([C@@H]2O[C@H](CNC(=O)[C@@H](Cc3cn(COCc4ccccc4)cn3)NC=O)[C@@H](O)[C@H]2O)c(=O)n1
32: Fc1cccc(CN2CCN3CCCC3C2C2CCCCC2)c1 (configuration not stated)
entry no. | 25 | 26 | 27 | 28 | 29 | 30 | 31 | 32
ALR inh | 6.0 | nt | -2.5 | 4.2 | -6.7 | 1.7 | nt | 3.3
FGF22 binding | nt | i | nt | i | nt | i | i | nt
HNF4A DNA FP | 0.1 | 0.5 | -2.5 | 1.3 | -3.2 | -1.1 | 4.5 | 0.2
E coli growth | 0.75 | nt | 0.655 | 0.619 | nt | 0.684 | nt | 0.667
Ecoli rRNA inh | nt | -9.6 | nt | -9.4 | nt | 0.4 | 11.0 | nt
Ecoli rRNA inh OD600 | nt | -13.2 | nt | 3.8 | nt | 2.8 | 7.2 | nt
Ecoli rRNA inh RFP | nt | 26.2 | nt | -2.3 | nt | -0.4 | 3.5 | nt
Beta2AR agonist | -4.3 | 6.4 | 13.0 | -6.7 | 3.1 | -1.3 | nt | 1.8
UCH37 inh | 3.2 | 4.7 | 0.5 | 1.0 | nt | 1.3 | nt | 6.6

33: CC(=O)c1ccc(N2CCN(C(=O)c3ccco3)C(C)C2)c(F)c1 (configuration not stated)
34: COCCNC(=O)Cn1nc(C)c2ccccc2c1=O
35: COc1ccccc1-n1cnnc1SCC(=O)Nc1cc(C)on1
36: C=CCn1c(SCC(=O)N2CCc3ccccc3C2)nc2sc(CC)cc2c1=O
37: CCCCn1c(N)c(N(CC(C)C)C(=O)c2cc(-c3ccco3)nc3ccccc23)c(=O)[nH]c1=O
38: CCO[C@@H]1OC(C(N)=O)=C[C@H](c2coc3ccccc3c2=O)[C@H]1CCCO
39: NC(=O)Cn1cnc2c(nnn2-c2ccc(F)cc2)c1=O
40: COc1ccc(-n2ncc3c(=O)n(CC(=O)Nc4ccc(S(=O)(=O)N5CCOCC5)cc4)cnc32)cc1
entry no. | 33 | 34 | 35 | 36 | 37 | 38 | 39 | 40
ALR inh | 2.0 | -2.1 | 5.0 | 22.7 | 0.6 | -7.8 | -10.7 | 0.2
FGF22 binding | nt | nt | i | nt | i | i | i | i
HNF4A DNA FP | 2.0 | -1.5 | 2.8 | 2.0 | -7.3 | 1.7 | -0.7 | 1.9
E coli growth | 0.717 | 0.754 | 0.719 | 0.693 | 0.709 | nt | 0.679 | 0.678
Ecoli rRNA inh | nt | nt | 14.9 | nt | 8.4 | 5.5 | 6.9 | -5.3
Ecoli rRNA inh OD600 | nt | nt | 11.9 | nt | 12.9 | 0.3 | 13.0 | -2.3
Ecoli rRNA inh RFP | nt | nt | 6.1 | nt | 2.5 | -4.5 | -3.5 | -9.0
Beta2AR agonist | 5.0 | -4.3 | 4.5 | 11.8 | -4.7 | -6.1 | -2.9 | -13.3
UCH37 inh | 5.3 | 5.3 | 1.3 | 2.3 | -44.9 | 0.4 | 3.4 | -4.3

41: O=C(Nc1ccnn1C1CCN(C(=O)c2c(F)cccc2F)CC1)C1CC1
42: CCOC(=O)CN(C(=O)COc1nc(-c2ccccc2)cc(C)c1C#N)c1ccccc1
43: Clc1ccc(-n2cccc2)cn1
44: CCOC(=O)c1ccc2c(c1)N(CC(=O)N1CCCC1)C(=O)C(C)(C)O2
45: NC(=O)[C@@H]1CC2(CC(c3cccc(NC(=O)CC(c4ccccc4)c4ccccc4)c3)=NO2)CN1C(=O)[C@@H]1CCC(=O)N1 (some centres not stated)
46: O=C(CCCCn1c(=O)[nH]c2ccccc2c1=O)NCCC1=CCCCC1
47: N#C/C(=C\c1ccc(F)cc1)C(=O)Nc1ccccn1
48: Cn1c(SCC(=O)NNC(=O)c2ccccc2O)nnc1-c1ccccc1
entry no. | 41 | 42 | 43 | 44 | 45 | 46 | 47 | 48
ALR inh | -3.7 | -10.5 | -1.8 | -3.1 | nt | -6.0 | 19.1 | nt
FGF22 binding | i | i | i | nt | i | nt | i | i
HNF4A DNA FP | -0.8 | -0.5 | 0.8 | 1.6 | -4.1 | -2.3 | 1.1 | 0.6
E coli growth | 0.695 | 0.664 | 0.685 | 0.705 | nt | 0.731 | 0.703 | 0.67
Ecoli rRNA inh | 9.0 | 7.3 | 14.0 | nt | -0.8 | nt | -38.4 | -9.2
Ecoli rRNA inh OD600 | 11.0 | 11.9 | 6.8 | nt | -12.0 | nt | -53.6 | -11.1
Ecoli rRNA inh RFP | 1.1 | -0.6 | 5.2 | nt | 10.8 | nt | -9.6 | -3.0
Beta2AR agonist | 2.7 | -9.6 | 1.5 | 3.1 | -1.6 | -10.2 | -3.1 | -2.8
UCH37 inh | -1.7 | -117.7 | 1.6 | 5.7 | 2.6 | 3.5 | -51.4 | -1.9

49: CCN1CCN(c2ncnc3c2c(-c2ccccc2)cn3-c2ccc(F)cc2)CC1
50: COC(=O)c1ccc2nc(C)cc(Nc3ccccc3C)c2c1
51: CC(C)=CCN1CCN(C/C(Cl)=C/c2ccccc2)CC1CCO (configuration not stated)
52: COc1ccc(NC(=O)Cn2nnc(-c3ccc(CN4CCOCC4)cc3)n2)c(OC)c1
entry no. | 49 | 50 | 51 | 52
ALR inh | -39.2 | nt | 2.0 | -12.0
FGF22 binding | nt | i | i | nt
HNF4A DNA FP | -6.5 | 6.6 | -0.1 | -0.2
E coli growth | 0.697 | 0.761 | 0.711 | 0.69
Ecoli rRNA inh | 7.0 | -0.6 | 3.6 | nt
Ecoli rRNA inh OD600 | 4.7 | 3.8 | -0.6 | nt
Ecoli rRNA inh RFP | 1.8 | -1.1 | 2.4 | nt
Beta2AR agonist | -2.4 | 8.6 | 12.1 | 5.9
UCH37 inh | 6.4 | -0.6 | 3.1 | 3.5

An excerpt; rates above refer to the full screens.
